Bioassay records as filed in PubChem BioAssay.
Env fusion inh: inhibitors of HIV-1 Env-driven cell-cell fusion, primary screen, HeLa-JRFL effector, CEM21 target cells, luciferase | inhibition, % at 12.3 µM | actives 1.1% (n = 360,000) | AID 651610, 2012;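 active = mean replicate inhibition score of at least 50 and every replicate individually at or above 50; inconclusive = only one of the two criteria met; inactive = mean below 50 and not all replicates reaching 50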;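 note: 0% = plate neutral controls and 100% = maraviroc near 300 nM; one replicate is shown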
MT1-MMP act inh: blockers of MT1-MMP proenzyme processing, primary screen, HT1080 RFP-PRO-GFP cells, GFP/RFP fluorescence; AID 651647, 2012; GFP/RFP ratio change, % at 20 µM; actives 0.061% (n = 360,000); Matrix metalloproteinase-14 (Homo sapiens), P50281; GFP/RFP ratio fluorescence, overnight; percent of plate control window, DMSO zero;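 active = GFP/RFP ratio change of at least 30% with cell ATP level not reduced by more than half and red fluorescence within 50% of control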; note: strong numbers were not always called active
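Test system: HT1080 cells expressing an RFP-PRO-GFP fluorescent reporter construct / Compound dosing: single-point 20 µM compound, 1% DMSO / Schedule: cells overnight before dosing, compound overnight, 37 °C, 5% CO2 / Evaluation: GFP/RFP fluorescence ratio / Control set: DMSO and RFP-L50D-GFP cell wells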
MT1-MMP act inh RFP: further read-out of MT1-MMP act inh, marked with its call; RFP signal change, %; measured here: RFP expression control read;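 0 = vehicle wells; hits needed this value within 50% of zero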
The depositor's hits bear a star; ? = inconclusive. A portion of the library, so the mix of outcomes need not match the whole.

SMILES | Env fusion inh | MT1-MMP act inh | MT1-MMP act inh RFP
CN(C)c1ccc(C=C(C#N)C(=O)c2ccccc2)cc1Br | -280 | -3 | 5
CCOC(=O)[C@]12CCC=C1N(Cc1ccc(Cl)cc1Cl)C(=O)[C@H](CC(=O)NCc1ccc(OC)c(OC)c1)C2 | 8 | 12 | -30
COc1cc2c(cc1OC)C1CCN3C(=O)CCC3N1CC2 (stereo not given) | -8 | -2 | -1
O=C(O)c1cccc2cccc(-c3c4ccc(=O)c(O)c-4oc4c(O)c(O)ccc34)c12 | 0 | -4 | -2
Cc1cc2nc(-c3ccccc3)c(Cc3cccc(Cl)c3)n2c(C)c1Br | 0 | -1 | -1
CCN(CC)C(=O)C1=C(C)N(CCC2=CCCCC2)C(=O)C(CC(=O)NC2CCCC2)C1 (stereo not given) | 2 | 4 | 7
O=C1NC[C@@H](CCCCN2CCN(CCC3CCCCC3)C(=O)C2=O)N(Cc2ccccc2)C1=O | -13 | 5 | 5
CC1(C(=O)NCc2ccccc2)CN(S(C)(=O)=O)CC(=O)N1Cc1cccc(C(F)(F)F)c1 (stereo not given) | 10 | 5 | 4
CCN(CC)c1ccc(C2NC(=O)c3ccccc3N2)cc1 (stereo not given) | 26 | 4 | 1
Nc1[nH]c(C(=O)c2ccccc2)c(-c2ccc(F)cc2)c1C(=O)NCCc1c[nH]c2ccccc12 | -40 | 9 | 2
COc1ccc(C=C(NC(=O)c2ccccc2)C(=O)O)cc1OC | 2 | 3 | 3
COc1ccc(NC(=O)C(c2ccccc2F)n2c(=O)c(-c3ccco3)nc3ccccc32)cc1 (stereo not given) | -21 | -8 | 0
CC(C)=NNc1ncnc2nc[nH]c12 | 19 | 3 | -1
N#CC(=C(O)COC(=O)Cc1c[nH]c2ccccc12)c1nc2ccccc2[nH]1 | -31 | -7 | 3
CCOc1ccc(CCN2C(=O)C(=O)N([C@@H](Cc3ccc(O)cc3)CN3CCC[C@H]3CN3C(=O)C(=O)NC[C@@H]3Cc3ccccc3)C[C@@H]2Cc2ccc(O)cc2)cc1 | 7 | -2 | 2
C[C@H]1COc2cccc(N(C)CCO)c2S(=O)(=O)N1 | -5 | 2 | 8
CCOC(=O)C(Cc1ccc(O)cc1)Nc1nc2ccccc2o1 (stereo not given) | 12 | -4 | -4
COC(=O)[C@H](NC(=O)c1cc([C@@H](NC(=O)OC(C)(C)C)C(C)C)sc1N)C(C)C | 5 | 1 | -5
COc1ccc([C@H]2CC(=O)C[C@@H](CCn3cc(-c4cccnc4)nn3)O2)cc1 | -5 | 0 | 2
OC[C@@H]1CN(Cc2cccnc2)C[C@H](n2cnc3c(N4CCCC4)ncnc32)O1 | -25 | 0 | 6
CCCN(C)C1CN(Cc2cn(Cc3cccc(Cl)c3)nn2)S(=O)(=O)C1 (stereo not given) | -26 | 4 | 3
CCCCCn1nnnc1C1(C)CCC(=O)N1Cc1ccco1 (stereo not given) | -7 | 5 | 8
CC(NC(=O)C1CCCN1C(=O)OC(C)(C)C)C(=O)OCc1ccccc1 (stereo not given) | -13 | 3 | 8
CC(C)(C)C(=O)Nc1cccc(-c2ccc[nH]2)n1 | 3 | 2 | -1

Full records, quoted from the list.
`COc1ccc(C=C(NC(=O)c2ccccc2)C(=O)O)cc1OC` is listed as Env fusion inh = 2; MT1-MMP act inh = 3; MT1-MMP act inh RFP = 3
`COc1cc2c(cc1OC)C1CCN3C(=O)CCC3N1CC2` (stereo not given) is listed as Env fusion inh = -8; MT1-MMP act inh = -2; MT1-MMP act inh RFP = -1

Next section:
SMILES | Env fusion inh | MT1-MMP act inh | MT1-MMP act inh RFP
COc1ccc(CCN2C(=O)CCC2(C)c2nnnn2Cc2ccccc2)cc1OC (stereo not given) | 23 | 2 | 4
O=C1c2ccccc2C(=O)N1N(c1ccccc1)c1ccccc1 | 12 | 0 | 3
Cc1ccc(Cn2cc(CN3CC(N4CCN(C)CC4)CS3(=O)=O)nn2)cc1 (stereo not given) | -64 | 5 | 8
OC[C@@H]1CN(Cc2cccc3ccccc23)C[C@H](n2cnc3c(NCc4ccco4)ncnc32)O1 | 8 | -1 | -1
Clc1ccccc1N=Nc1ccccn1 | -2 | -72 | 9
CCCCNc1c(CCc2ccccc2)nc2nc(C)cc(C)n12 | -191 | -3 | 8
O=C(NCCN1CCC(n2c(=O)[nH]c3ccccc32)CC1)c1cccnc1 | 26 | 4 | 3
Cc1cc(C(=O)C(C(c2ccccc2)N2CCOCC2)N2CCOCC2)ccc1Cl (stereo not given) | 0 | -1 | 0
Cc1c(C(=O)c2ccc(F)cc2F)c2ccccn2c1CCc1ccccn1 | 40 | -12 | 4
CC(C)n1nnnc1C1c2ccccc2C(=O)N1Cc1ccc(F)cc1 (stereo not given) | 19 | 3 | 3
O=C(Nc1ccc(F)cc1)C(c1ccncc1)N1CCN(c2cccc(C(F)(F)F)n2)CC1 (stereo not given) | -16 | -9 | -11
Cc1ccccc1-n1nnnc1SCC(=O)NC1CC1 | -6 | -2 | 0
CCCCCCCCN1C(=O)[C@H](CC(=O)NCCc2ccccc2OC)C[C@@]2(C(=O)OCC)CCCC=C12 | 27 | 0 | -8
Cn1cccc([N+](=O)[O-])c1=O | 2 | -6 | 3
CCC(c1nnnn1-c1ccc2c(c1)OCCO2)N1CCN(c2ccccn2)CC1 (stereo not given) | 7 | 5 | 0
CC(NC(=O)c1ccccc1)C(=O)NC1CCCc2ccccc21 (stereo not given) | -13 | 1 | 1
Nc1ccccc1C(=O)NC(=O)Nc1ccc(Oc2ncc(Br)cn2)c(Cl)c1 | -3 | 21 | -3
Cc1ccc(S(=O)(=O)N2CCN(CC(=O)Nc3ccccc3C(=O)NC3CC3)CC2)cc1 | -16 | 1 | 1
CN1CCN(c2ccc3c(c2)OC[C@H](Cc2ccccc2)NS3(=O)=O)CC1 | 5 | 4 | 2
N#Cc1ccc(-c2nc3c4ccccc4ccn3c2Cc2ccsc2)cc1 | -8 | 1 | -3
COc1ccc(C=C2Cc3ccccc3C2=O)cc1 | -29 | 2 | -4
CN(Cc1ccccc1)C(=O)[C@@H]1CCCN1 | 18 | -2 | 3
CSCCC(C(=O)NC(C)(C)C)n1c(-c2ccc3c(c2)OCO3)nc2ccccc21 (stereo not given) | -6 | -1 | 0
O=S1(=O)CC(N2CCSCC2)CN1Cc1cn(Cc2ccc(C(F)(F)F)cc2)nn1 (stereo not given) | ? | 4 | 3
Cc1cccc(C)c1NC(=O)C1(C)CSCC(=O)N1Cc1cccs1 (stereo not given) | -9 | 7 | 5
CCCc1c(-c2ccccc2F)ncn1Cc1ccccc1OC | -3 | 4 | -20
CCN(CC)C1Oc2cc3c(cc2C(c2cccc(OC)c2O)C1C)OCO3 (stereo not given) | 16 | -8 | -11
O=S1(=O)CC(N2CCN(Cc3ccccc3F)CC2)CN1Cc1cn(Cc2ccccc2)nn1 (stereo not given) | 14 | 2 | -1
FC(F)(F)c1cc(Cl)c2nc(-c3ccco3)c(Cc3ccccc3C(F)(F)F)n2c1 | 0 | -3 | -1
CCOC(=O)[C@]12CCCC=C1N(Cc1ccc(Cl)cc1Cl)C(=O)[C@H](CC(=O)NCCCN1CCCC1=O)C2 | -67 | 3 | 2
CC(=O)CC1c2ccccc2C=C(c2ccsc2)N1c1ccc(-c2cccs2)cc1 (stereo not given) | 7 | -3 | -21
O=C1NC[C@H](CCCCN2C[C@H](Cc3ccc(O)cc3)N(CCC3CCCCC3)C(=O)C2=O)N(CC2CCCCC2)C1=O | -20 | 5 | 2
O=C1NC[C@H](CCCCN2C[C@H](Cc3ccc(O)cc3)N(Cc3ccccc3)C(=O)C2=O)N(CCc2ccccc2)C1=O | -8 | 1 | 2
CC1=C(C(=O)N(C)C)CC(CC(=O)NC2CCCC2)C(=O)N1Cc1ccccc1 (stereo not given) | -7 | -3 | 5
COC(=O)Cc1c(-c2[nH]c3ccccc3c2CC(=O)OC)[nH]c2ccccc12 | 4 | -28 | 22
COC(=O)[C@]12CCCCC=C1N(CCC1=CCCCC1)C(=O)[C@H](CC(=O)NCC1CCCCC1)C2 | 14 | -7 | -12

Nothing new here: 15 of the compounds above.
SMILES | Env fusion inh | MT1-MMP act inh | MT1-MMP act inh RFP
Cc1ccccc1-n1nnnc1SCC(=O)NC1CC1 | -6 | -2 | 0
CCCCCCCCN1C(=O)[C@H](CC(=O)NCCc2ccccc2OC)C[C@@]2(C(=O)OCC)CCCC=C12 | 27 | 0 | -8
Cn1cccc([N+](=O)[O-])c1=O | 2 | -6 | 3
CCC(c1nnnn1-c1ccc2c(c1)OCCO2)N1CCN(c2ccccn2)CC1 (stereo not given) | 7 | 5 | 0
CC(NC(=O)c1ccccc1)C(=O)NC1CCCc2ccccc21 (stereo not given) | -13 | 1 | 1
Nc1ccccc1C(=O)NC(=O)Nc1ccc(Oc2ncc(Br)cn2)c(Cl)c1 | -3 | 21 | -3
Cc1ccc(S(=O)(=O)N2CCN(CC(=O)Nc3ccccc3C(=O)NC3CC3)CC2)cc1 | -16 | 1 | 1
CN1CCN(c2ccc3c(c2)OC[C@H](Cc2ccccc2)NS3(=O)=O)CC1 | 5 | 4 | 2
N#Cc1ccc(-c2nc3c4ccccc4ccn3c2Cc2ccsc2)cc1 | -8 | 1 | -3
COc1ccc(C=C2Cc3ccccc3C2=O)cc1 | -29 | 2 | -4
CN(Cc1ccccc1)C(=O)[C@@H]1CCCN1 | 18 | -2 | 3
CSCCC(C(=O)NC(C)(C)C)n1c(-c2ccc3c(c2)OCO3)nc2ccccc21 (stereo not given) | -6 | -1 | 0
O=S1(=O)CC(N2CCSCC2)CN1Cc1cn(Cc2ccc(C(F)(F)F)cc2)nn1 (stereo not given) | ? | 4 | 3
Cc1cccc(C)c1NC(=O)C1(C)CSCC(=O)N1Cc1cccs1 (stereo not given) | -9 | 7 | 5
CCCc1c(-c2ccccc2F)ncn1Cc1ccccc1OC | -3 | 4 | -20

Later entries:
SMILES | Env fusion inh | MT1-MMP act inh | MT1-MMP act inh RFP
CC[C@@H]1CC2=C(C(=O)OC(C)(C)O2)[C@@H](c2ccc(Cl)cc2)O1 | -1 | -2 | -2
O=C1NC(=O)C(CCc2ccccc2)(c2ccccc2)N1 (stereo not given) | -2 | 0 | 4
O=C(CSc1nncs1)Nc1cc(S(=O)(=O)N2CCOCC2)ccc1N1CCCC1 | -11 | 1 | 2
Cc1ccn2c(C(C)O)nnc2c1 (stereo not given) | 10 | 2 | 0
O=C(NCc1ccc(F)cc1)OC1CC2CC1[C@H]1CCCCN1C2=O (stereo not given in full) | -11 | -2 | 3
Cc1ccc(-c2nc3ccc(C)cn3c2Cc2cccc(F)c2)cc1 | 3 | -6 | -13
CCCCCCN1CCN(C2CN(Cc3cn(CCCC(=O)OC)nn3)S(=O)(=O)C2)CC1 (stereo not given) | ? | 1 | 3
O=C1NC[C@@H](CCCCN2C[C@H](Cc3ccccc3)N(CC3CCCCC3)C(=O)C2=O)N(CCc2ccc(O)cc2)C1=O | 21 | 2 | 4
CCCCCCCCN1C(=O)[C@H](CC(=O)NCCCCc2ccccc2)C[C@@]2(C(=O)OC)CCCCC=C12 | 18 | -9 | -14
O=C1N=C2N(CCN3CCCCC3)c3ccccc3N2/C1=C\c1ccc([N+](=O)[O-])s1 | 3 | -13 | 0
O=C(Nc1ccccc1Cl)c1ccc(C(=O)Nc2ccccc2Cl)cc1 | -5 | 2 | 6
COc1ccc(S(=O)(=O)NC(=O)C2(C)CCN2C(=O)CC2CCCCC2)cc1OC (stereo not given) | -9 | 4 | 5
CC[N+](CC)=N/N=C1\C=CC[N+]([O-])=C1 | -31 | 7 | 9
C=C(CN(C)C)C(=O)c1ccc(OC2OC(COC(C)=O)C(OC(C)=O)C(OC(C)=O)C2OC(C)=O)cc1 (stereo not given) | 46 | 12 | -6
Cc1cccc(C)c1NC(=O)C(c1ccccc1)n1c(=O)c(-c2ccco2)nc2ccccc21 (stereo not given) | -7 | -9 | 10
COC(=O)[C@@]12C[C@@H](CC(=O)NCc3cccc4ccccc34)C(=O)N(CCc3ccc(OC)c(OC)c3)C1=CCC(C)(C)C2 | -3 | -1 | -11
O=C(NC1CCCC1)C(c1ccccc1)n1c(Cc2cc(F)cc(F)c2)nc2ccccc21 (stereo not given) | 71* | -5 | -11
COC(=O)[C@]12CCCCC=C1N(Cc1ccc(Cl)cc1Cl)C(=O)[C@H](CC(=O)N1CCSCC1)C2 | 1 | -10 | -11
O=C(/C=C/c1ccccc1)CCN1CCOCC1 | -450 | -4 | -2
